# Bioassay records (PubChem BioAssay)
# Mtb MenB inh: blocks the Mycobacterium tuberculosis MenB enzyme. P9WNP5. MenB enzyme assay, absorbance read-out; some hits fall short of the stated cut. inhibition, %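 (about 12 µg/mL by stock and volumes)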. 100,000 compounds, 0.43% hits. AID 540299;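 active = mean of two replicates above 30%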;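 also: 0% = no compound and 100% = wells with inactive enzyme; the first replicate is given; strong numbers were not always called active; inactives centre near -10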
# Target sequence (P9WNP5 whole entry, looked up): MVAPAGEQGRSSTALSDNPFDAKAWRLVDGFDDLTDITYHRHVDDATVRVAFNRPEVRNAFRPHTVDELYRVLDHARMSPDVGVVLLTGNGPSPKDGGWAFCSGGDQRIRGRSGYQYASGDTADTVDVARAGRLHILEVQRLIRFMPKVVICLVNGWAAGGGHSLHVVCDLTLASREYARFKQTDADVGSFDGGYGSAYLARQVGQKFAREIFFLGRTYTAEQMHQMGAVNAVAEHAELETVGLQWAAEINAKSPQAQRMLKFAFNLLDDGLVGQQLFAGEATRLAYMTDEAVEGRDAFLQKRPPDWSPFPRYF
# Mtb MbtI inh: MbtI salicylate synthase inhibition | P9WFX0 | purified MbtI enzyme, fluorescence intensity read-out | inhibition, %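 (about 17 µg/mL by stock and volumes)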 | 100,000 compounds, 0.89% hits;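 active = above 50% in both replicates, above 80% if mildly self-fluorescent; inactive = the rest, strongly fluorescent compounds included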;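 also: 0% = mean of negative and 100% = mean of positive controls; one replicate is shown; some compounds called inactive have numbers as strong as hits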
# Target sequence (P9WFX0 whole entry, looked up): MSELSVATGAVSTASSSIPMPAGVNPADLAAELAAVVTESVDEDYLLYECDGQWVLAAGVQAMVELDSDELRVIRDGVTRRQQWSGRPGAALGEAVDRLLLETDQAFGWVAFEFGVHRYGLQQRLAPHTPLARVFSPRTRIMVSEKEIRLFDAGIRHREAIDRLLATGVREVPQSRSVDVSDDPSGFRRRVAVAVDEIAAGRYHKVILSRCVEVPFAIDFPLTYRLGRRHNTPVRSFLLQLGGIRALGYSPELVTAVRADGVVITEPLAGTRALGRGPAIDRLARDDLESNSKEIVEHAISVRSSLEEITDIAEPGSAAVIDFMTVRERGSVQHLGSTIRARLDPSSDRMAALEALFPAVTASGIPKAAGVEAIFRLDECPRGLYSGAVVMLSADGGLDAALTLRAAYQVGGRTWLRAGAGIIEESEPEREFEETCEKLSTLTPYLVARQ
# PV pol inh: inhibitors of poliovirus RNA polymerase binding and polymerization | poliovirus polymerase elongation, fluorescence polarization; active compounds read low | P03300 | % elongation, % (compound at 16.7 µg/mL) | 150,000 compounds, 0.66% hits; in the data active = % elongation below about 90%; also: some results filed as inactive read as strong as hits
# PV pol inh intensity: also measured in PV pol inh; calls as there; % elongation; measured here: total intensity read-out; formula for this scale not given here;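 total fluorescence in place of polarization; lower means less elongation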
# * hit, by the source's call; x = not tested or not shown; & = joins results of further samples.
SMILES,Mtb MenB inh,Mtb MbtI inh,PV pol inh,PV pol inh intensity
NC(=O)C1C2C=CC(C2)C1C(=O)O (stereo not given),2,-11,98,98
Cc1cccc(NS(=O)(=O)c2ccc(CCN3C(=O)c4cccnc4C3=O)cc2)c1C,-20,-12,102,100
COc1ccc(CCNC(=O)c2ccc(-n3cncn3)cc2)cc1,-14,-5,102,107
CC(C)NC(=S)NNc1ncc(C(F)(F)F)cc1Cl,-6,30,103,105
CC(Oc1ccc(C#N)cc1)C(=O)NN1C(C)CCCC1C (stereo not given),5,3,101,98
COc1cc(C(=O)CN(C)C2CCCCC2)cc(OC)c1OC,-17,-11,106,112
O=C(CSc1nc(=O)n(CCCN2CCOCC2)c2c1CCCC2)N1CCc2ccccc21,-28,-6,103,95
O=C(O)C1CSC(c2ccccc2)N1 (stereo not given),-9,17,101,103
COc1cc(/C=C2\SC(N3CCN(CCO)CC3)=NC2=O)ccc1OCc1ccccc1,-45,-6,101,100
NC(=O)CSc1nnc2c(n1)[nH]c1ccc(Cl)cc12,12,30,104,103
CC1CCN(C(=O)COC(=O)c2ccc(N(C)C)cc2)CC1,x,-8,101,106
Cc1sc(-c2cnn(-c3ccccc3)c2N)nc1-c1ccccc1,-5,-9,104,110
Cc1ccc(-c2noc(COC(=O)c3cccnc3SCC(=O)Nc3ccccc3OC(F)F)n2)cc1,-26,-12,109,113
Cc1cc(C)nc(SCC(=O)NC2CCCCC2)n1,x,4,103,109
CCN1C(=O)CSc2ccc(C(=O)NC3CCCCCCC3)cc21,-18,9,102,99
Cc1ccc(-c2noc(CCC(=O)N(C)C)n2)cc1,-23,-9,101,104
CNC(=O)COC(=O)c1ccccc1OC,5,17,100,108
Cc1cc(C)nc(N2CCOCC2)n1,x,-24,101,104
O=C(Oc1ccc2ccccc2c1)c1ccccc1O,-11,9,100,100
Cn1c(Cc2cccs2)nnc1SCC(=O)C12CC3CC(CC(C3)C1)C2,-9,-4,96,103
COC(=O)c1ccc(N)cc1,1,17,x,x
CCOC(=O)C1=C(C)N(C)C(c2ccccc2)(C(F)(F)F)NC1=O (stereo not given),14,10,101,104
CC(C)CCn1c(=O)c2cccnc2n(Cc2cccc(F)c2)c1=O,-28,-5,104,107
O=C(CCCCCN1C(=O)c2ccccc2C1=O)Nc1ccc2c(c1)OCO2,-1,-8,101,101
COc1ccc(S(=O)Cc2ccc(C(=O)NCCN(C)C)o2)cc1 (stereo not given),6,6,103,105

# 4 entries from above in another layout:
SMILES	Mtb MenB inh	Mtb MbtI inh	PV pol inh	PV pol inh intensity
O=C(O)C1CSC(c2ccccc2)N1 (stereo not given)	-9	17	101	103
Cn1c(Cc2cccs2)nnc1SCC(=O)C12CC3CC(CC(C3)C1)C2	-9	-4	96	103
NC(=O)C1C2C=CC(C2)C1C(=O)O (stereo not given)	2	-11	98	98
COC(=O)c1ccc(N)cc1	1	17	x	x

# Following part:
SMILES,Mtb MenB inh,Mtb MbtI inh,PV pol inh,PV pol inh intensity
COc1cc2c(cc1OC)C1=C(C#N)COCN1CC2,-30,22,102,108
CN(C(=O)Cn1ncc2c(=O)oc3ccccc3c21)c1ccc(F)cc1,9,-4,101,102
O=S(=O)(c1cccc2cccnc12)N1CCC(n2cccc2)CC1,0,-6,102,105
Cc1cc(S(=O)(=O)N2CCN(Cc3noc(CCC(=O)N(C)C4CCCCC4)n3)CC2)ccc1F,-14,-1,100,101
CCCCOC(=O)Cn1c2ccccc2c2nc3ccccc3nc21,14,-2,101,102
FC(F)(F)c1cccc(N2CCN(Cc3cccs3)CC2)c1,-33,-11,100,103
CC(O)CNCc1ccccc1OCc1ccccc1F (stereo not given),-2,1,104,108
CCc1cc2c(=O)n(Cc3ccco3)c(SCC(=O)NC3CCCC3)nc2s1,9,0,102,103
CCCCCCCCCCCCCCCC[N+](C)(C)C,1,-29,99,100
CCOC(=O)c1cnc(-c2ccccc2)nc1-c1ccncc1,-5,-3,101,105
COc1ccc2nc(N3CCCCC3)[nH]c2c1,-19,12,100,106
O=C(Cn1ncn2c(cc3ccccc32)c1=O)N1CCN(c2ccccc2)CC1,11,19,100,102
CCn1cc(S(=O)(=O)CC(=O)Nc2ccc3c(c2)OCCO3)c2ccccc21,-4,-7,99,103
COc1cccc(NCCCCO)c1,-44,8,100,100
O=c1[nH]c(CCl)nc2sc3c(c12)CCCC3,x,-7,100,96
CCCCc1cc(CCCC)n2nc(-c3ccccc3)cc2n1,-3,x,100,101
CC1CCN(C(=O)Cn2ncc3c([nH]c4ccccc43)c2=O)CC1,4,-106,104,104
Cc1ccc(NC(=O)/C=C/c2ccc(Br)o2)cc1,x,3,99,95
N#Cc1ccccc1CSCC(=O)N1CCN(c2ccccc2)CC1,-19,1,105,106
CCc1ccc(-c2cc(C)no2)cc1S(=O)(=O)NCCCN1CCC(C)CC1,2,-22,100,103
O=C(CSc1ccc(-c2ccncc2)nn1)N1CCCc2ccccc21,-31,4,104,101
CCCC(C(=O)Nc1ccc(OCC)cc1)N1Cc2ccccc2C1=O (stereo not given),-13,7,102,102
[O-][n+]1onc2c1CCc1c-2nc(-c2ccccc2)n1O,21,42,100,100
Cc1ccc(CNC(=O)Nc2ccccc2)cc1,-13,-14,107,106
C/C=C(\C(=O)O)c1ccccc1,-12,-11,104,106

# Exported with each value named: entries from further up
COc1cccc(NCCCCO)c1
  Mtb MenB inh = -44
  Mtb MbtI inh = 8
  PV pol inh = 100
  PV pol inh intensity = 100

O=c1[nH]c(CCl)nc2sc3c(c12)CCCC3
  Mtb MenB inh = x
  Mtb MbtI inh = -7
  PV pol inh = 100
  PV pol inh intensity = 96

# Continued:
SMILES,Mtb MenB inh,Mtb MbtI inh,PV pol inh,PV pol inh intensity
O=C1N/C(=N\O)S/C1=C/c1ccc(O)cc1,-10,-2,101,104
COC(=O)c1c(NC(=O)CCN2CCOCC2)sc2c1CCCC2,-13,0,100,98
CN1C(N)=NC(=O)C12COC(c1cccnc1)OC2 (stereo not given),7,4,101,102
N#Cc1ccc(NC(=O)COC(=O)CCc2nc3ccccc3[nH]c2=O)cc1,-5,3,105,110
CCc1ccc(S(=O)(=O)NCc2csc(-c3cccnc3)n2)s1,-27,13,102,114
CC(C)c1c(C#N)c(N)nc(SCC(N)=O)c1C#N,2,x,121,140
CC(C)Sc1nc2c(c(=O)[nH]1)C(c1cccs1)C1=C(CC(C)(C)CC1=O)N2 (stereo not given),-8,10,103,106
CC(C)c1ccccc1NC(=O)COC(=O)Cn1nnc(-c2ccccc2)n1,-19,3,103,105
O=S(=O)(Nc1nc2ccccc2nc1NCCc1ccccc1)c1ccc(Cl)cc1,-19,104,103,106
Cc1cnc(C(=O)NC(c2ccccc2)c2ccccc2)cn1,-2,-11,101,109
COC(=O)c1cc(OC)c(OC)cc1NC(=O)c1ccc(-c2ccccc2F)o1,-2,74,100,102
Cc1ccc(-c2nnc3n(Cc4ccc(F)cc4)c(=O)c4ccccc4n23)s1,-6,-35,105,101
CC(=O)Nc1scc(C)[n+]1C,x,6,104,100
CC1CSC(Nc2ccccc2C(C)C)=N1 (stereo not given),x,-11,102,98
O=C(CCN1C(=O)c2ccccc2C1=O)Nc1nncs1,-13,-1,99,102
CCc1ccc(OCC(=O)c2c(O)c3ccccc3oc2=O)cc1,-2,2,100,104
c1ccc2c(c1)nc(NC1CCCC1)c1nncn12,-11,-1,102,107
CC1(C)C/C(=N/NC(N)=S)c2ccoc2C1,-49,15,101,102
Cc1ccc(N2CC(=O)N(/N=C/c3ccc4c(c3)OCO4)CC2=O)cc1,-6,-8,104,104
CC(C)NC(=O)N(Cc1cccnc1)Cc1cccs1,-13,-15,102,104
O=C(O)C1(c2ccccc2)CCCN1 (stereo not given),-4,-6,100,100
Cc1nnc(Sc2cc(C(=O)NC3CC3)c3ccccc3n2)s1,-2,-4,102,109
CCN(CC)S(=O)(=O)c1ccc2c(c1)nc(CC(=O)O)n2C,-21,94*,81*,80*
CSc1c(CC(=O)Nc2ccc(C)cc2)[nH]c2ccccc12,-15,x,105,99
CCCCn1c(SCC(=O)Nc2ccc(OC)cc2)nc2ccc(N3CCOCC3)cc2c1=O,-8,-8,100,100

# 3 compounds out of the list, arranged by heavy-atom count, high to low.
SMILES,Mtb MenB inh,Mtb MbtI inh,PV pol inh,PV pol inh intensity
Cc1cnc(C(=O)NC(c2ccccc2)c2ccccc2)cn1,-2,-11,101,109
c1ccc2c(c1)nc(NC1CCCC1)c1nncn12,-11,-1,102,107
CC1CSC(Nc2ccccc2C(C)C)=N1 (stereo not given),x,-11,102,98

# Following part:
SMILES,Mtb MenB inh,Mtb MbtI inh,PV pol inh,PV pol inh intensity
CCN(CC)C(=O)c1cccc(-c2nnc(-c3ccccc3)o2)c1,6,13,99,101
CN(C)c1ccc(/C=C2\N=C(C(C)(C)C)OC2=O)cc1,-33,-2,101,115
O=C(O)c1ccc(C(=O)O)c(-c2nc3ccccc3s2)c1,-4,9,102,106
CC1CN(C(=O)CCC(=O)N2CCCCC2)c2ccccc2O1 (stereo not given),-12,-9,103,103
CC(OC(=O)c1ccc(Cl)c(N)c1)C(=O)Nc1ccc(C(N)=O)cc1 (stereo not given),4,-37,97,91
O=C1CCCCC1c1nccc2ccccc12 (stereo not given),-9,-8,104,102
COc1ccc(/C=C2/Sc3ccc(C(=O)N(C)C4CCCCC4)cc3NC2=O)cc1,0,-12,101,103
Cc1ccc(C)c(Oc2c(C(F)(F)F)oc3c(CN4CCN(C)CC4)c(O)ccc3c2=O)c1,7,-4,108&100,105&103
COc1cc(C(=O)NCCC(=O)N2CCN(C)CC2)cc(OC)c1OC,-21,-9,100,96
CCCNC(=O)CN1C(=O)CSc2ncccc21,-3,1,100,104
Cc1sc2nc(CN3CCOCC3)nc(NCCc3ccc(S(N)(=O)=O)cc3)c2c1C,-3,0,105,102
Cc1ccc(S(=O)(=O)NNc2ncnc3c(C)csc23)cc1,19,74,98,105
NC(=O)CS(=O)C(c1ccccc1)c1ccccc1 (stereo not given),-5,-22,101,101
Cc1ccc(OCC(=O)OCC(N)=O)cc1C,x,-5,102,102
c1ccc2[nH]c(C34CC5CC(CC(C5)C3)C4)cc2c1,-19,9,102,106
CCCS(=O)(=O)N1CCCC(C(=O)N2CCC3(CC2)OCCO3)C1 (stereo not given),16,-13,101,104
CCOC(=O)c1cnc(SCC(=O)NCc2ccco2)nc1N,8,8,101,101
CCOC(=O)c1sc(SC)c(C#N)c1-c1cccs1,1,-9,99,93
CC(C)NC(=O)CC1Nc2c3ccccc3nc(=S)n2C1=O (stereo not given),-20,25,103,107
CCN(CC)S(=O)(=O)c1ccc(N2CC(C(=O)NC3CCCc4ccccc43)CC2=O)cc1 (stereo not given),-15,12,97,103
FC(F)(F)c1ccccc1NC1=NCCCS1,-1,-6,102,103
N#Cc1cc2c(nc1SCc1ccncc1)CCCCC2,-5,9,100,101

# Two entries drawn at random from the list so far:
SMILES,Mtb MenB inh,Mtb MbtI inh,PV pol inh,PV pol inh intensity
CC(OC(=O)c1ccc(Cl)c(N)c1)C(=O)Nc1ccc(C(N)=O)cc1 (stereo not given),4,-37,97,91
CCCCCCCCCCCCCCCC[N+](C)(C)C,1,-29,99,100
